Screening results deposited in PubChem by several laboratories.
Mtb hypoxia rep: PubChem AID 1159583 | fluorescence inhibition, % (no concentration beside the values) | M. tuberculosis hypoxia-regulated fluorescent reporter, fluorescence | 300,000 tested, 0.1% active;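 active means 35 to 45% if threefold the growth effect, above 45% if 1.5-fold the growth effect; inactive means the rest, general growth blockers included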;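 further: wells of about 50 µL received 100 nL stock; 0% = vehicle wells and 100% = reference inhibitor wells; whole bacteria with a GFP reporter of the hypoxia response; strong numbers were not always called active; many hits fall short of the cut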
BJeLR viability: MLPCN primary cell-based screen for lethality selective to Ras in HRASV12 cells; AID 1554, 2009; 300,000 tested, 0.17% active; inhibition, % (no concentration beside the values); BJeLR (HRASV12) viability, CellTiter-Glo ATP luminescence, 48 h; reference of the scale not given here;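 active means replicate mean above 50%; inconclusive means above 50% but judged a plate artefact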;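 further: 50 nL library stock added to about 25 µL; numbers are from one replicate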
PrP UTR inh: inhibition of PrP 5' UTR reporter expression; cell-based PrP 5' UTR mRNA reporter, plate reader; inhibition, % (concentration not given with the values); 340,000 tested, 0.35% active; AID 488862, 2010;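 active means every replicate at 50% or more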;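 further: 0 = median of the neutral control wells; tested in H4 reporter cells; numbers are from one replicate; inactives centre near -14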
Sa RN4220 lethal: growth inhibition of S. aureus RN4220, primary screen, OD600; AID 1259311, 2017; 330,000 tested, 0.33% active; inhibition, % (no concentration beside the values); 16 h;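 active means z-score of -3 or lower and OD600 up to 0.18 on both plates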;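 further: plate controls were untreated cells for no effect and reference antibiotic for full effect; stock transfer was 100 nL into about 80 µL; one replicate is shown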
Sa ugtP lethal: growth inhibition of ugtP-null S. aureus, primary screen, RN4220 ugtP deletion, OD600. 16 h; some inactives read as strong as hits. growth inhibition, % (concentration not given with the values). 330,000 tested, 0.54% active. AID 1259309, 2017;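 active means z-score under -3 and OD600 up to 0.15 on both plates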;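 further: plate controls were untreated wells for no effect and antibiotic for full effect; wells of about 80 µL received 100 nL stock; the first replicate is given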
Autofluor counter: flagged as autofluorescent in microsphere protease counterscreen; fluorescence intensity (concentration not given with the values); compound autofluorescence counterscreen, microsphere flow cytometry; stronger effect = higher value; AID 624483; 360,000 tested, 3.1% active;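 active means at least 3 SD above the mean of all compounds, about 16000 in these data; inconclusive means too few beads counted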;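 further: 100 nL of 1 mM stock went into each well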
Mtb hypoxia rep growth: also measured in Mtb hypoxia rep; calls as there; growth inhibition, %; measured here: M. tuberculosis growth (absorbance);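 0% = vehicle and 100% = reference antibiotic; read after six days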
* = called active by the depositor; u = inconclusive; x = no result given.

Start of the data: the first 7 entries as a preview:
Screens in order – Mtb hypoxia rep	Mtb hypoxia rep growth	BJeLR viability	PrP UTR inh	Sa RN4220 lethal	Sa ugtP lethal	Autofluor counter
[1] O=C(O)C1C2c3ccccc3C(c3ccccc32)C1C(=O)Nc1ccccc1 (centres undefined)
    12	15	5	-22	1.9	2	3487
[2] Cn1cccc1C(=O)OCC(=O)NC1CCS(=O)(=O)C1 (centres undefined)
    5	12	4	-31	-0.1	9	3336
[3] Nc1ncnc2c1ncn2[C@@H]1O[C@H](CN2CCCS2(=O)=O)[C@@H](O)[C@H]1O
    -6	-10	x	-20	1.1	5	3752
[4] CCOC(=O)C(=O)N1CCC(C(=O)OCC)CC1
    -3	-3	-2	-27	0.0	0	5529
[5] COc1ccc(C(=O)Nc2ncc3c(n2)-c2ccccc2CC3)cc1
    8	14	-4	-25	2.4	1	5707
[6] Cc1nc2ccccc2n1C1CCN(CC(=O)Nc2ccccc2Br)CC1
    -3	1	6	1	1.9	-7	2087
[7] CCS(=O)(=O)N1CCC(C(=O)Oc2ccc(C(=O)OC)cc2)CC1
    -12	3	0	-8	1.9	-1	5488

The list itself, previewed entries included:
Screens in order – Mtb hypoxia rep	Mtb hypoxia rep growth	BJeLR viability	PrP UTR inh	Sa RN4220 lethal	Sa ugtP lethal	Autofluor counter
[1] O=C(O)C1C2c3ccccc3C(c3ccccc32)C1C(=O)Nc1ccccc1 (centres undefined)
    12	15	5	-22	1.9	2	3487
[2] Cn1cccc1C(=O)OCC(=O)NC1CCS(=O)(=O)C1 (centres undefined)
    5	12	4	-31	-0.1	9	3336
[3] Nc1ncnc2c1ncn2[C@@H]1O[C@H](CN2CCCS2(=O)=O)[C@@H](O)[C@H]1O
    -6	-10	x	-20	1.1	5	3752
[4] CCOC(=O)C(=O)N1CCC(C(=O)OCC)CC1
    -3	-3	-2	-27	0.0	0	5529
[5] COc1ccc(C(=O)Nc2ncc3c(n2)-c2ccccc2CC3)cc1
    8	14	-4	-25	2.4	1	5707
[6] Cc1nc2ccccc2n1C1CCN(CC(=O)Nc2ccccc2Br)CC1
    -3	1	6	1	1.9	-7	2087
[7] CCS(=O)(=O)N1CCC(C(=O)Oc2ccc(C(=O)OC)cc2)CC1
    -12	3	0	-8	1.9	-1	5488
[8] Cc1ccc(/C=N/n2c(C)cc(C)c(C#N)c2=O)cc1
    x	x	2	-7	x	x	10433
[9] COC(=O)C1=C(C(=O)OC)C2N(C)c3ccccc3[C@@]23CC(C(=O)OC)N(C(=O)C2CCC2)C3=N1 (some centres undefined)
    11	7	x	x	-1.6	-1	x
[10] CC(C)NC(=O)c1ccc(CS(=O)(=O)c2ccc(Br)cc2)o1
    x	x	-7	-15	-0.8	3	5531
[11] Cc1ccc(C)c(NC(=O)CCN2CCCC(C)C2)c1 (centres undefined)
    4	6	-2	-46	5.4	9	4009
[12] O=C1CC(c2cccc(Cl)c2)c2cc3c(cc2N1)CCC3 (centres undefined)
    1	-5	19	-33	0.5	-39	9767
[13] Cc1nc2cc(OCc3cc(C(=O)NC(C)c4cn(C)nc4C)no3)ccc2s1 (centres undefined)
    7	13	3	-18	3.7	6	5492
[14] COCCC(=O)N1CCC(Oc2ccc(C(=O)N(C)CCCC3CCCC3)cc2)CC1
    4	-1	-1	-20	7.3	10	4877
[15] O=C1CSC(c2cccc([N+](=O)[O-])c2)N1Cc1ccccc1 (centres undefined)
    17	7	9	-26	4.4	5	3883
[16] CC1(C)CC(=O)C/C(=N/NC(=O)COc2ccc(Cl)cc2Cl)C1
    x	x	7	-7	x	x	4492
[17] COc1ccc(CSCC(=O)Nc2ccc(S(=O)(=O)N3CCCCCC3)cc2)cc1
    -5	-1	3	-20	6.4	-4	2432
[18] CCN1CCN(c2ncnc3c2sc2nc(N4CCOCC4)c4c(c23)CCC4)CC1
    -1	-2	x	-19	2.3	0	2835
[19] CC(C)c1c(O)nc(SCC(=O)N2CCCCC2)[nH]c1=O
    -5	4	9	-29	2.0	3	3829
[20] O=C(NCCC1=CCCCC1)C1CCCN(S(=O)(=O)c2ccc(F)cc2)C1 (centres undefined)
    10	12	-3	-15	-2.2	0	2538
[21] COc1ccc(CNC(=O)c2ccc3c(=O)n(-c4ccccc4)c(=O)[nH]c3c2)cc1
    0	-3	1	-13	2.9	1	3558
[22] O=C(NCc1ccc(F)cc1)C(=O)Nc1nc(C23CC4CC(CC(C4)C2)C3)cs1
    8	6	12	-6	26	-29	2376
[23] O=c1[nH][nH]c2ccccc2c1=O
    1	9	0	-1	1.7	3	6350
[24] C(=N\N(Cc1ccccc1)c1ccccc1)/c1cccnc1
    x	x	4	-25	x	x	4416
[25] CCOc1ccc(N(CC(=O)NCc2ccco2)C(=O)CCC(=O)Nc2ccccn2)cc1
    -1	3	-12	-11	0.6	5	3769
[26] Cc1ccc(NC(=O)CSc2ccc3nnc(-c4ccccn4)n3n2)cc1
    10	13	0	-5	-1.9	2	5216
[27] O=C(N/N=C/c1ccc2c(c1)OCO2)c1cccc2ccccc12
    x	x	1	-26	x	x	3694
[28] C=CCn1c(COC)nnc1SCC(=O)c1ccc(F)cc1
    13	7	2	-17	3.5	-1	16919*
[29] O=C(CCc1nc2ccccc2c(=O)[nH]1)NNC(=O)COc1ccc(Br)cc1
    3	4	8	-8	2.3	0	u
[30] O=c1ccnc(Sc2ncccc2[N+](=O)[O-])[nH]1
    x	x	x	-1	1.3	4	4261
[31] Cc1ccc(C(c2nnnn2CCc2ccccc2)N2CCSCC2)cc1 (centres undefined)
    6	4	-16	-11	7.7	3	2881
[32] COc1ccc(Br)cc1/C=N/N1CCN(Cc2ccccc2Cl)CC1
    x	x	-7	-47	x	x	4210
[33] Cc1nn(-c2nnc(NC3CCCCC3)nn2)c(C)c1Br
    14	20	-7	-128	5.0	0	2147
[34] CCOC(=O)Cc1cnc(NC(=O)CSc2nc3ncnc(N)c3[nH]2)s1
    5	7	6	-19	6.3	3	3967
[35] Cc1ccc(Oc2ncccc2/C=N/OCc2ccc(Cl)cc2Cl)cc1
    x	x	-11	-32	x	x	2714
[36] CCNC(=S)Nc1nc2c(cc1C(=O)OCC)CCCC2
    -5	6	5	-10	-6.4	-2	9977
[37] COc1ccc(C(=O)Nc2cnn(Cc3ccc(Cl)cc3)c2)cc1OC
    5	4	-11	-18	5.9	12	7972
[38] O=C(CCc1ccccc1)NNC(=O)C1CCCCC1
    7	1	4	-28	2.8	11	10094
[39] O=S(=O)(NCc1csc(-c2cccs2)n1)c1ccccc1
    7	-10	6	-6	4.2	10	5399
[40] CC(C)Oc1ccc(-c2cc(=O)[nH]c(=O)[nH]2)cc1
    x	x	6	4	3.8	13	2754
[41] COC(=O)c1cc(-c2ccccc2)sc1N
    -15	-8	1	-28	3.5	-2	3458
[42] COc1ccc(CCNC(=O)c2coc3ccccc3c2=O)cc1OC
    6	0	-6	-28	0.8	13	4873
[43] CC(=Nc1ccccc1)C1=C(O)CC(C)(C)CC1=O
    6	1	2	-8	8.7	12	4531
[44] COC1=C(Nc2ccc(OC)cc2)C(=O)C(OC)=C(Nc2ccc(OC)cc2)C1=O
    3	-3	x	-10	3.9	3	2894
[45] CCCCCCCCCOC(=O)C1N2C(=O)[C@@H](NC(=O)COc3ccccc3)[C@H]2SC1(C)C (some centres undefined)
    x	x	-1	-18	x	x	3549

Part of the list above, as labelled records:
42: COc1ccc(CCNC(=O)c2coc3ccccc3c2=O)cc1OC
  Mtb hypoxia rep = 6	Mtb hypoxia rep growth = 0	BJeLR viability = -6	PrP UTR inh = -28	Sa RN4220 lethal = 0.8	Sa ugtP lethal = 13	Autofluor counter = 4873

43: CC(=Nc1ccccc1)C1=C(O)CC(C)(C)CC1=O
  Mtb hypoxia rep = 6	Mtb hypoxia rep growth = 1	BJeLR viability = 2	PrP UTR inh = -8	Sa RN4220 lethal = 8.7	Sa ugtP lethal = 12	Autofluor counter = 4531

Later entries
Screens in order – Mtb hypoxia rep	Mtb hypoxia rep growth	BJeLR viability	PrP UTR inh	Sa RN4220 lethal	Sa ugtP lethal	Autofluor counter
[46] CCOC(=O)Cc1csc(SCC(=O)Nc2cccc(C#N)c2)n1
    10	10	4	-22	4.4	-6	6416
[47] CCOc1ccc(NC(=O)C(=O)NCCN2CCN(C(=O)c3ccc(C)cc3)CC2)cc1
    10	12	8	-27	1.2	6	3593
[48] CC(=O)n1nc2nc(C)cc(C)c2c1N
    1	11	0	-13	-0.8	17	11181
[49] COc1ccccc1OCC(=O)NCc1cccs1
    7	9	-2	-20	7.9	7	3448
[50] CC(C)C(NC(=O)C1CCCCC1)C(=O)NC1=NCCS1 (centres undefined)
    3	15	-1	-3	1.5	6	5003
[51] COc1ccccc1NC(=O)C(=O)NCCCN1CCCC1=O
    2	9	-4	-12	-0.1	1	5894
[52] COc1ccc(C2CC(c3ccccc3)=NN2C(=O)CSc2ncn[nH]2)cc1 (centres undefined)
    -1	-5	2	-19	7.0	-61	4239
[53] Oc1ccc(/C=N/n2c(-c3ccccc3)n[nH]c2=S)cc1Br
    x	x	-7	-3	x	x	3946
[54] CCOC(=O)C1=C(COC(=O)[C@@H](NC(=O)c2cccc(C)c2)C(C)C)NC(=O)NC1C (some centres undefined)
    0	7	x	-7	1.8	7	3803
[55] Cc1cccc(C)c1OCC(O)CN1CCN(c2ccccn2)CC1 (centres undefined)
    4	10	1	-2	0.8	8	4692
[56] N#CCC(=O)Nc1ccc(C(=O)NCc2ccccn2)cc1
    7	2	9	-12	-0.6	3	3508
[57] COc1ccc(C(=O)Oc2ccc3c(C)cc(=O)oc3c2C(C)=O)cc1
    0	3	-3	-11	9.3	-3	8450
[58] O=C1CN(c2nc(-c3ccccc3)c3ccccc3n2)c2ccccc2N1
    7	7	-4	1	7.6	6	2113
[59] COCCN(C(=O)C1CC1)c1nnc(-c2cccc(C)c2)s1
    x	x	3	-24	5.7	10	3222
[60] CCOc1ccc(-c2c(=O)n(OCC)c3ccccc3[n+]2[O-])cc1
    26	36	2	-19	1.8	0	3677
[61] O=C(Nc1cccc(S(=O)(=O)Nc2ccc(Cl)cc2)c1)c1ccc(Cl)nc1
    -8	-3	16	-10	-9.5	-7	2365
[62] CCOc1ccc(NC(=O)c2cccnc2C(=O)O)cc1
    3	3	3	-32	4.3	5	11750
[63] O=c1c2ccccc2[nH]c2ccccc12
    x	x	-6	-8	-0.5	10	4841
[64] CCS(=O)(=O)c1ccc2c(c1)N(S(C)(=O)=O)CC(C(=O)NCc1ccccc1OC)O2 (centres undefined)
    -8	1	6	1	-5.5	0	3895
[65] CC(C)NCC(O)COc1ccc(COCCOC(C)C)cc1 (centres undefined)
    -4	-3	-2	-17	1.7	0	5213
[66] Cc1cc(SCCOc2ccccc2)nc(N)n1
    11	12	1	-41	12	3	4537
[67] CCCCOC(=O)CCN1C(=O)/C(=C2\SC(=S)N(CCC(=O)OCCCC)C2=O)SC1=S
    16	8	5	-21	7.3	5	2108
[68] NC(=O)c1ccccc1OCC(=O)c1ccc(Cl)cc1
    -4	2	3	6	3.6	7	3284
